# Screens: PubChem, National Center for Advancing Translational Sciences (NCATS)
# VDR inh: blocks the human vitamin D receptor | P11473 | Potency, µM, inactives show max response, negative = inhibition, usual class: inhibitors | actives 0.93% (n = 400,000) | VDR-SRC2-3 peptide fluorescence polarization, 2 h; active = well fitted inhibition curve with a large enough effect; inconclusive = small, poorly fitted or top-dose-only effect, or another doubt; inactive = no such curve, though single readings can be large or run the other way; note: series mostly up to about 120 µM
# Target sequence (P11473 whole entry, looked up): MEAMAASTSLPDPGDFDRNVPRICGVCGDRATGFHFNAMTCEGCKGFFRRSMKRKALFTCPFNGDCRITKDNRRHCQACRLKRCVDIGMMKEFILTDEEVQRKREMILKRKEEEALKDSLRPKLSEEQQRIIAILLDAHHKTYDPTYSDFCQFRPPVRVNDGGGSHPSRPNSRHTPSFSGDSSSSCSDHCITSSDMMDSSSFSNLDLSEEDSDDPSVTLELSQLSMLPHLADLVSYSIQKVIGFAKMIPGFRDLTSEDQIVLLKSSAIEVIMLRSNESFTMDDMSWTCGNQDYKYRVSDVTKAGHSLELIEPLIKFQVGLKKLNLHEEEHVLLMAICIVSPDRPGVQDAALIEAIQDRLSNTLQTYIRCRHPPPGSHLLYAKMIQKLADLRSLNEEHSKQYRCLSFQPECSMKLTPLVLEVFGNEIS
#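 Fluorescence polarization assay measuring small-molecule disruption of VDR binding to the coregulator peptide SRC2-3. Compounds were pin-transferred (23 nl) into the reagent mix and incubated 2 h at room temperature before reading.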
# * = called active by the depositor; ? = inconclusive; & = joins results of further samples. % is set by controls: 0 for no effect and ±100 for the full control effect; potency is the fitted concentration of half-maximal effect. Some of the compounds tested; rates above refer to the full screens.
SMILES	VDR inh
CCn1c(=S)sc2c(=O)n(CC(=O)Nc3cccc(Cl)c3)c(C)nc21	-6.8%
COC(=O)c1cc(S(=O)(=O)Nc2ccc(C)c(F)c2)c[nH]1	6.0%
CC1=NN(c2ccc(C)cc2)C(=O)/C1=C\C=C\c1ccccc1	79.4µM*
COc1ccc(OC)c(S(=O)(=O)NCC(c2ccc(F)cc2)N2CCN(C)CC2)c1 (stereo unspecified)	5.4%
CN(C)S(=O)(=O)c1cc(NC2CC(=O)N(c3ccc(F)cc3)C2=O)ccc1Cl (stereo unspecified)	-4.0%
CCN(CC(=O)Nc1cc(Cl)ccc1C)C(=O)c1ccc(=O)n(Cc2ccccc2)n1	14.5%
COCCN1C(=O)C(=O)/C(=C(/O)c2ccc(S(=O)(=O)N3CCOCC3)cc2)C1c1cccc(Cl)c1 (stereo unspecified)	1.8%
COc1ccc(CNN2CCCCC2C(=O)Nc2ccc(OC)c(OCC(C)C)c2)cc1OC (stereo unspecified)	-2.3%
COc1cccc(OC)c1C(=O)NC(=S)N1CCCCC1c1cccnc1 (stereo unspecified)	-0.1%
COc1ccc(OCC(=O)N(C)Cc2ccccc2)cc1	3.0%
OCc1ccccc1O[C@@H]1O[C@H](CO)[C@@H](O)[C@H](O)[C@H]1O	-19.1%&3.7%
Cc1cc(C(=O)COC(=O)c2cccc(S(=O)(=O)N(C)C)c2)c(C)n1CC1CCCO1 (stereo unspecified)	-24.0%
COC(=O)Oc1ccccc1C(=O)O	-5.5%
Nc1nc(-c2cccs2)c(CC(=O)O)s1	11.1%
Fc1ccccc1C1c2cccn2CCN1C(=S)Nc1cccc(Br)c1 (stereo unspecified)	-11.6%
COc1ccc2nc(SCC(=O)N3CCCCC3)c(C#N)cc2c1	0.9%
CCNc1nc(NC(C)C)nc(N(C#N)CC(=O)OC)n1	-3.1%
O=C(O)c1cc(-c2ccc(-c3c(-c4ccc5c(c4)OCO5)noc3-c3ccsc3)cc2)nc2ccccc12	?
O=C(CC(c1ccccc1)c1ccccc1O)N1CCCCC1 (stereo unspecified)	-29.9%
COc1ccc(CNC(=O)c2ccc(CNc3c(NC4CCCCC4)c(=O)c3=O)cc2)cc1	7.4%
O=C(COCc1cc(-c2ccc3c(c2)OCO3)on1)Nc1cccnc1Cl	-19.1%
O=C(CN1CCOCC1)Nc1ccc2c(c1)OCCO2	6.6%
CN1CCN(NC(=O)c2cccs2)CC1	1.6%
O=[N+]([O-])c1ccc(OC(F)F)c(/C=N/n2cnnc2)c1	8.2%
N#Cc1cccnc1N1CCN(C(=O)c2ccccc2)CC1	17.4%
Cc1[nH][nH]c(=O)c1C=Nc1ccc(C(F)(F)F)cc1	-8.7%
N#Cc1ccccc1CN1C(=O)c2ccccc2S1(=O)=O	?
Cc1cc(=O)oc2cc(OCC(=O)OCC(=O)Nc3ccc4ccccc4c3)ccc12	-5.4%
O=C1CC2(CCN(C(=O)COc3ccc(F)cc3)CC2)Oc2ccccc21	0.1%
Cc1ccc(C(=O)Cn2nnc(-c3ccccc3)n2)cc1	-6.6%
COc1ccc(CC(=O)N(Cc2ccccc2)C(C)C)cc1	-16.7%
CCN1CCN(C(CNS(=O)(=O)c2ccc(OC)cc2)c2cccnc2)CC1 (stereo unspecified)	-7.8%
O=C(COc1ccc(/C=N/NC(=O)c2ccccc2)cc1)Nc1ccc([N+](=O)[O-])cc1	-1.7%
COc1ccc(-c2c3c(=O)n(C)c(=O)n(C)c3cn2NC(C)=O)cc1	5.6%
COCCCn1c(=O)c2sccc2n2c(CCCC(=O)Nc3cccc(OC)c3)nnc12	3.3%
COc1ccc(C2C(C(=O)NCc3ccccc3)=C(C)Nc3ncnn32)cc1OC (stereo unspecified)	5.2%
Cc1cccc(N2CCN(S(=O)(=O)c3cccc4nonc34)CC2C)c1 (stereo unspecified)	3.8%
CCCCn1c(N)c(N(CC(C)C)C(=O)CSc2ccc3c(c2)OCCO3)c(=O)[nH]c1=O	?
COc1cccc2cc(C(=O)Oc3ccccc3)c(=O)oc12	-2.0%
CCOc1ccc(C(=O)Nc2cc(=O)n(C)c(=O)n2C)cc1	4.1%
CCN(CC)C(=O)c1[nH]cnc1C(=O)N[C@@H](CCCCNC(=O)OC(C)(C)C)C(=O)OC(C)(C)C	-0.8%
Cc1ccccc1-n1c(=O)c2ccccc2n2cnnc12	-20.0%
COc1ccc(NC(=O)CN(C)C(=O)c2ccc(=O)[nH]c2)cc1	14.8%
CCn1ncc([N+](=O)[O-])c1C(=O)Nc1ccc(C)c(C)c1	-24.9%
O=c1c(-c2ccco2)[n+]([O-])c2ccccc2n1OCc1ccccc1[N+](=O)[O-]	10.9%
COC(=O)c1ccc(=O)n(-c2ccc(OC)cc2)c1	-16.5%
CCN(CC)CCNC(=O)c1cc2c(=O)n(C)c3ccccc3c2n1C	?
CCn1nnc(NC(=O)c2sc3ccccc3c2Cl)n1	-4.2%
CCOc1ccc(/C=N/NC(=O)Cc2csc(Nc3cccc(C(F)(F)F)c3)n2)c(OCC)c1	0.2%
O=C(C1CCC(Cn2c(=S)[nH]c3ccccc3c2=O)CC1)N1CCN(c2ccccc2)CC1 (stereo unspecified)	-6.8%

# The list continues.
Structure,VDR inh
CCNC(=S)N1CCC(n2cnc3ccccc32)CC1,-9.2%
Cc1cc(OCC(O)CN2CCN(c3cccc(Cl)c3)CC2)ccc1Cl (stereo unspecified),-7.9%
C=CCOc1c(CNn2nnnc2N)cccc1OC,0.5%
CN(C)c1ccc(/C=C/C#N)cc1,-7.8%
CCCN(CC(=O)Nc1ccc(F)c(F)c1F)C(=O)CCc1nc2ccccc2c(=O)[nH]1,11.7%
Cc1cccc(C(=O)Nc2sc(-c3ccccc3)cc2C(=O)O)c1,-23.9%
CCCc1[nH]nc2c1C(c1ccc(OC(=O)c3ccco3)cc1)C(C#N)=C(N)O2 (stereo unspecified),-0.1%
COc1cc2c(cc1OC)C(C(=O)N1CCCC1)C(c1ccccc1F)N(C)C2=O (stereo unspecified),4.7%
NC(=O)c1ccsc1NC(=O)c1cc(=O)c2ccccc2o1,-20.0%
Cc1ccc(-n2cnnn2)cc1Cl,-3.6%
COc1cccc(-c2noc(CCCC(=O)N3CCOCC3)n2)c1,-10.1%
O=C(c1ccccc1Cl)c1c(O)c2ccccc2oc1=O,-8.1%
Cc1ccc(NC(=O)Cn2c(SCc3cccc(F)c3)nc3ccncc32)c(C)c1,11.2%
N/C(Cc1ccc([N+](=O)[O-])cc1)=N\OC(=O)COc1ccccc1Cl,-5.7%
CCOc1ccc(OCC(=O)Nc2ccc(OC)cc2)cc1,-6.0%
COc1ccc(-n2nnc3c(=O)n(Cc4ccccc4C)cnc32)cc1,-19.1%
CCN1CCSc2ccc(C(=O)NCc3cc(Br)ccc3OC)cc21,-1.5%
CC(C)C[C@H]1CN=C(N(C)C)N1CC1CCCC1,-6.5%
COc1ccc(OC)c(NC(=O)COC(=O)Cc2ccc(-c3ccccc3)cc2)c1,-2.5%
Cc1ccc(C)c(S(=O)(=O)Nc2ccc(O)c(C(=O)O)c2)c1,?
CCOc1ccccc1N(C)C(=O)c1cn(CC)c(=O)c2cc(OC)c(OC)cc12,13.7%
COCCn1c(=N)c(C(=O)NCC2CCCO2)cc2c(=O)n3ccccc3nc21 (stereo unspecified),-8.0%
C=CCOC(=O)C1=C[C@@H](C2CCCCC2)C[C@@H](OCc2ccc(CO)cc2)O1,10.0%
Cc1cccc(C)c1Nc1nnc(SCc2cc([N+](=O)[O-])cc3c2OCOC3)s1,-2.1%
Cc1ccc2c(CSc3nc4nc(C)cc(C)n4n3)cc(=O)oc2c1,6.0%
Cc1nc2ccccc2n1CCOc1ccccc1,-3.3%
Cc1nn(CC(=O)c2ccc(Cl)cc2Cl)c(C)[n+]1N,-22.2%
NC(=O)C1CCN(C(=O)c2cc3n(n2)C(C(F)(F)F)CC(c2ccco2)N3)CC1 (stereo unspecified),1.1%
NS(=O)(=O)c1cc(C(=O)N=Nc2c(O)[nH]c3ccccc23)ccc1Cl,-2.6%
CCOC(=O)c1c(NC(=O)c2cc3n(n2)C(C(F)(F)F)CC(c2cccs2)N3)sc(C)c1C (stereo unspecified),-7.1%
Clc1ccc(Cn2c3c(c4ccccc42)CCc2cc4ccccc4nc2-3)cc1,-23.7%
CCOc1ccc(N(CC(=O)NCc2cccs2)S(=O)(=O)c2c(C)noc2C)cc1,8.8%
O=C(CN1CCN(Cc2ccccc2Cl)C1=O)NC1CCCCCCC1,-0.5%
CN1CCN(C(=O)CCc2nc(-c3ccc(Cl)cc3)no2)CC1,0.1%
O=C(/C=C/c1ccccc1)NCc1ccc2c(c1)OCO2,25.8%
CCOC(=O)C1=C(Cc2ccc(F)cc2)C(=O)c2ccccc2C1=O,4.47µM*
CNc1c(NS(=O)(=O)c2ccc(Cl)s2)c(=O)oc2ccccc12,0.2%
O=C(NCC(=O)N(c1ccc(F)cc1)C(C(=O)NCC1CCCO1)c1ccccc1)c1ccco1 (stereo unspecified),-5.8%
COc1ccc(OCC(=O)N/N=C/c2ccc(N(C)C)cc2)cc1,-1.4%
COc1ccc(-c2c(-c3ccc(S(C)(=O)=O)cc3)sc3ccc(OC)cc23)cc1,-18.8%
O=CNc1c(Cl)cc2c(c1Cl)Cc1cc([N+](=O)[O-])ccc1-2,-10.7%
O=C(O)COCC(=O)N1CCc2c([nH]c3ccccc23)C1C(F)(F)F (stereo unspecified),9.7%
COc1ccc(N2CCN(Cc3nc4c(c(=O)[nH]c(=O)n4C)n3CC(C)=O)CC2)cc1,-5.6%
CCc1ccccc1NC(=O)C1=C(C)C(=O)OC12CCCCCC2,-2.9%
O=C(O)c1c(NC(=O)c2cccc3ccccc23)sc2c1CCC2,-18.4%
COc1ccc(CN(CCC(c2ccccc2)c2ccc(OC(C)C)cc2)C(=O)CCl)cc1OC (stereo unspecified),-22.4%
COc1cccc(CNC(=O)CN(c2ccc(C(C)C)cc2)S(=O)(=O)c2c(C)noc2C)c1,-6.1%&-6.4%
C[C@H](NC(N)=O)C(=O)OCC(=O)Nc1ccc(OC(F)F)cc1,-9.5%
CCc1ccccc1NC(=O)CCNS(=O)(=O)c1ccc2c(c1)CCCC(=O)N2,18.9%
O=C(NCC(c1ccco1)S(=O)(=O)c1cccs1)c1ccc(F)c(F)c1 (stereo unspecified),13.7%
COc1ccccc1NC(CC(=O)c1ccccc1)C(=O)OCC(=O)c1ccc(Br)cc1 (stereo unspecified),-25.2%
COc1cc(/C=c2/sc3nc(-c4ccccc4)c(-c4ccccc4)n3c2=O)cc(OC)c1OC,-4.6%
CSc1ccccc1NC(=O)CN1CCCCC1,-12.6%
CCc1ccc(S(=O)(=O)Nc2c(C)nn(C)c2C)cc1,4.9%
c1ccc(-c2nn[nH]n2)nc1,3.1%
COc1ccccc1NC(=O)c1c([N+](=O)[O-])cnn1C,-12.8%
O=C(CNC(=O)c1ccc(Br)cc1)NC1=NCCS1,5.5%
COc1cc(/C=C/C(=O)NC2CCCCC2)cc(OC)c1OC,?
CSc1nccc(Oc2cncc(Cl)c2)n1,3.7%
Cc1nc(CN2CCC(c3ccccc3)CC2)cc(=O)[nH]1,?

# Other entries:
Structure,VDR inh
Cc1ccc(/C(O)=C/C(=O)C(=O)NNC(=O)C(O)(c2ccccc2)c2ccccc2)cc1,-8.8%
CCN(CC(=O)NCc1ccc(F)cc1)CC(O)COCc1cccc(OC)c1 (stereo unspecified),-3.2%
N=c1n(Cc2ccccc2)c2ccccc2n1CC(O)COc1ccccc1 (stereo unspecified),-17.4%
Cc1ccc(S(=O)(=O)N2CCCc3ccccc32)cc1C,-17.3%
O=C(NCc1cccnc1)c1cc(S(=O)(=O)N2CCOCC2)c(Cl)cc1Cl,-4.8%
Cc1cccc(NC(=O)CN2C(=O)/C(=C3\SC(=S)N(CC4CCCO4)C3=O)c3ccccc32)c1 (stereo unspecified),0.5%
CC(C)C(c1nnnn1Cc1cccs1)N1CCN(c2ccccc2)CC1 (stereo unspecified),-7.8%
COc1cc(NC(=O)c2cc3ccccc3o2)c(OC)cc1Br,9.6%
Cc1ccccc1CN1C(=O)c2ccccc2Sc2ccc(C(=O)NCCc3ccccc3)cc21,-1.3%
COc1cccc(NC(=O)CN(C)CC(=O)NC(C)c2ccccc2)c1 (stereo unspecified),11.6%
COCCn1c(SCC(=O)NC2CCCCC2)nnc1-c1ccco1,7.1%

# Gathered by group: those above with an NH in an aromatic ring
Structure,VDR inh
COC(=O)c1cc(S(=O)(=O)Nc2ccc(C)c(F)c2)c[nH]1,6.0%
Cc1[nH][nH]c(=O)c1C=Nc1ccc(C(F)(F)F)cc1,-8.7%
CCCCn1c(N)c(N(CC(C)C)C(=O)CSc2ccc3c(c2)OCCO3)c(=O)[nH]c1=O,?
CCN(CC)C(=O)c1[nH]cnc1C(=O)N[C@@H](CCCCNC(=O)OC(C)(C)C)C(=O)OC(C)(C)C,-0.8%
COc1ccc(NC(=O)CN(C)C(=O)c2ccc(=O)[nH]c2)cc1,14.8%
O=C(C1CCC(Cn2c(=S)[nH]c3ccccc3c2=O)CC1)N1CCN(c2ccccc2)CC1 (stereo unspecified),-6.8%
CCCN(CC(=O)Nc1ccc(F)c(F)c1F)C(=O)CCc1nc2ccccc2c(=O)[nH]1,11.7%
CCCc1[nH]nc2c1C(c1ccc(OC(=O)c3ccco3)cc1)C(C#N)=C(N)O2 (stereo unspecified),-0.1%
NS(=O)(=O)c1cc(C(=O)N=Nc2c(O)[nH]c3ccccc23)ccc1Cl,-2.6%
O=C(O)COCC(=O)N1CCc2c([nH]c3ccccc23)C1C(F)(F)F (stereo unspecified),9.7%
COc1ccc(N2CCN(Cc3nc4c(c(=O)[nH]c(=O)n4C)n3CC(C)=O)CC2)cc1,-5.6%
c1ccc(-c2nn[nH]n2)nc1,3.1%
Cc1nc(CN2CCC(c3ccccc3)CC2)cc(=O)[nH]1,?
